# Cruzain inh Det: blocks cruzain activity in presence of Triton detergent. P25779. Potency, µM, inactives show max response, negative = inhibition, hits mostly inhibitors. purified cruzain, Z-FR-AMC fluorescence, 0.01% Triton. actives 0.43% (n = 200,000);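 further: plate controls were neutral wells for no effect and buffer without enzyme for full effect; nearly all actives have a fitted effect of over 40% in size; top concentration of the series not given in the record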
# Target sequence (P25779 123-467 limits assumed): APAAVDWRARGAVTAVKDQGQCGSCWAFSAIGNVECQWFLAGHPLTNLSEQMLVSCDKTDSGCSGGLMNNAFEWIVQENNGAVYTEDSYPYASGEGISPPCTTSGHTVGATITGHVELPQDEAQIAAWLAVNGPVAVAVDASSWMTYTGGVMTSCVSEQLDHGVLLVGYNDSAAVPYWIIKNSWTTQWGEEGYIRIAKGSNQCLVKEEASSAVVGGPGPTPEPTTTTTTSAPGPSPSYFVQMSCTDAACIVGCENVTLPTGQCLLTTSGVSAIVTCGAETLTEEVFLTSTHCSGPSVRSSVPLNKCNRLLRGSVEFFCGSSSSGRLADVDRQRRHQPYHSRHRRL
#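 Cruzain (1.5 nM) preincubated 15 min at RT with compound in 100 mM sodium acetate pH 5.5, 5 mM DTT, 0.01% Triton X-100. Reaction started with 2 uM Z-FR-AMC; AMC fluorescence (ex 360/em 450 nm) change over 60 s gave rate.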
# Cruzain inh noDet: inhibitors of Trypanosoma cruzi cruzain without detergent. P25779. actives 2.3% (n = 200,000). purified cruzain, Z-FR-AMC fluorescence, no detergent. Potency, µM, without a hit: max response, negative = inhibition, usual class: inhibitors;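 further: plate controls were enzyme without inhibitor for no effect and buffer without enzyme for full effect; nearly all actives have a fitted effect of over 40% in size; top concentration of the series not given in the record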
#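 Detergent-free condition (0.00005% Triton X-100) in acetate buffer pH 5.5 with DTT. 1.5 nM enzyme and compound were pre-mixed 15 min, then 2 uM Z-FR-AMC substrate added; reaction progress from fluorescence change between first and third reads (60 s).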
# Starred values were filed as active, the others as inactive; ? = inconclusive; & = joins results of further samples. The call rests on the fitted dose curve; in most records, active means well fitted curve in the direction sought with a large enough effect; inconclusive means small, poorly fitted or top-dose-only effect, or another doubt; inactive means no such curve, though single readings can be large; an effect the other way counts as inactive or inconclusive. Potency means the concentration at half of the fitted maximal effect. A portion of the library (hit frequency here may not be typical).
# Values run as follows: Cruzain inh Det	Cruzain inh noDet
O=[N+]([O-])c1ccc(NCCO)c(OCCO)c1
→ -5.8%	-3.3%
CC(C)C[C@@H](CC(=O)N[C@@H](CCC(=O)O)CC(=O)O)NC(=O)[C@@H]1CNCC[C@H]1NC(=O)C[C@H](CCCN)NC(=O)C[C@H](CO)NC(=O)[C@@H]1CNCC[C@H]1N
→ 4.2%	-1.5%
CCCC/C=C/C(NC(=O)C(C)(C)C)c1ccccc1 (stereo not drawn)
→ -0.1%	0.0%
O=Cc1ccc(Cl)cc1
→ 0.3%	6.0%
CCN(CC)CCn1c(-c2ccccc2)nc2c(NCc3ccccc3)nc(C)nc21
→ -3.1%	2.2%
CC/C=C\C/C=C\C/C=C\C/C=C\C/C=C\C/C=C\CCC(=O)NC(C)C(=O)O (stereo not drawn)
→ 4.1%	5.0%
CC1CC[C@@]2(NC1)O[C@@H]1C[C@H]3C4CC=C5C[C@@H](O)CC[C@]5(C)C4CC[C@]3(C)[C@H]1[C@@H]2C (stereo partly drawn)
→ 0.1%	9.1%
CC(C)C[C@@H](CC(=O)N[C@@H](CCCN)CC(=O)N[C@@H]1CCNC[C@H]1C(=O)N[C@H](CC(=O)N[C@@H](CCC(=O)O)CC(=O)O)Cc1c[nH]c2ccccc12)NC(=O)[C@@H]1CNCC[C@H]1N
→ -1.6%	-5.6%
CCCn1c(C)nc2c(N(CCOC)CCOC)nc(C)nc21
→ 0.1%	2.2%
COC(=O)C1(C(C)=O)CC2=CC[C@H]3C(=O)N(c4ccccc4)C(=O)[C@H]3[C@@H]2Cc2ccccc2[C@@H]1C[N+](=O)[O-] (stereo partly drawn)
→ 3.5%&4.9%	-4.1%&-12.5%
COC(=O)[C@@]1(Cc2ccc(OC)cc2)[C@H]2c3cc(C(=O)N4CCCC4)n(CCN4CNCC4=O)c3C[C@H]2CN1C(=O)c1ccccc1
→ -2.6%	?
COc1cccc([C@@H]2Oc3ccc(OC)cc3C(=O)[C@H]2OC(=O)Nc2ccc(OC(F)F)cc2)c1
→ -2.8%	-8.2%
C=CCC(O)(C(=O)OC)c1ccccc1 (stereo not drawn)
→ 1.3%	-1.3%
Cc1ccc(C(C)(C)C)cc1
→ 1.9%	-4.7%
CC(=O)CC(=O)[C@@]1(O)CC[C@@H]2[C@@H]3C=C(C)C4=CC(=O)CC[C@@H]4[C@H]3CC[C@]21C
→ -0.6%	5.8%
O=C1Nc2ccc(Cl)cc2C(c2ccccc2)=NC1O (stereo not drawn)
→ -0.2%	-5.8%
C/C(Cl)=C/CCl
→ 7.3%	-0.7%
Cc1ccc(C2CC(=O)Oc3cc4c(cc32)OCO4)cc1 (stereo not drawn)
→ -8.6%	-16.6%
O=C(NC[C@@H](O)CO)c1c(I)c(C(=O)NC[C@@H](O)CO)c(I)c(N(CCO)C(=O)CO)c1I
→ -2.6%	5.4%
Nc1ccc(F)cc1F
→ -0.1%	-2.8%
C[C@@H]1[C@H](O)[C@@H](C)/C=C/C=C/C=C/C=C/C=C/C=C/C=C/[C@H](O[C@@H]2O[C@H](C)[C@@H](O)[C@H](N)[C@@H]2O)C[C@@H]2O[C@](O)(C[C@@H](O)C[C@@H](O)[C@H](O)CC[C@@H](O)C[C@@H](O)CC(=O)O[C@H]1C)C[C@H](O)[C@H]2C(=O)O
→ -9.8%	?
CCCn1c(C)nc2c(N3CCN(C)CC3)nc(C)nc21
→ 2.8%	0.7%
CCOc1ccc(/C=C/C(=O)c2cccs2)cc1
→ -6.7%	3.8%
Cc1nc(N2CCOCC2)c2nc(-c3ccccc3)n(CCN3CCCC3)c2n1
→ -2.9%	-8.4%
CCCn1c(C)nc2c(NCCCN(CC)CC)nc(C)nc21
→ -4.8%	-8.5%
CCN(CC)CCCCn1c(-c2ccccc2)nc2c(N3CCOCC3)nc(C)nc21
→ -3.3%	-8.3%
O=C(NCCc1ccccc1)c1cccc(Br)n1
→ -0.4%	?
CC1=C(/C=C/C(C)=C/C=C/C(C)=C/C=C/C=C(C)/C=C/C=C(C)/C=C/C(=O)[C@]2(C)C[C@@H](O)CC2(C)C)C(C)(C)C[C@H](O)C1
→ -1.0%	3.0%
CN1CC[C@]2(C)c3cc(O)ccc3N(C)[C@@H]12
→ -0.3%	-7.5%
COc1ccc(-c2oc3cc(OC)ccc3c2C(=O)c2ccc(C#N)cc2)cc1
→ 6.3%	12.6µM*
C[C@@H](C(=O)Nc1ccc2ccccc2c1)[C@@H]1C[C@@]1(C)[C@@H](NC(=O)Oc1ccc(F)cc1)c1ccccc1
→ 3.2%	7.94µM*
CCCn1c(C)nc2c(NCCCCN3CCCC3)nc(C)nc21
→ 3.8%	-5.5%
CC(C)(c1cc(Br)c(OCC(Br)CBr)c(Br)c1)c1cc(Br)c(OCC(Br)CBr)c(Br)c1 (stereo not drawn)
→ -2.3%	-7.7%
Clc1ccc(C(Cl)(Cl)Cl)cc1Cl
→ 1.6%	-7.4%
Cc1ccccc1
→ 6.6%&8.3%	-4.8%&-7.8%
C[C@H](CCC(=O)O)C[C@H](C)C[C@H](C)C(=O)/C=C(\O)[C@H](C)C[C@H](C)C/C=C/[C@@H](C)[C@@H](O)[C@@H](C)[C@@H](O)C[C@@H]1CC[C@@](C)(C2CC[C@@](C)([C@@H](C)O)O2)O1 (stereo partly drawn)
→ -1.5%	?
O=[N+]([O-])c1cc(Cl)c(Cl)c(Cl)c1
→ 8.1%	0.4%
CC(=O)N1CC=CC1(CC(C)C)C(=O)NCc1ccccn1 (stereo not drawn)
→ -0.4%	-9.8%
Cl/C=C\Cl
→ 3.5%	-3.7%
CCCn1c(-c2ccc(F)cc2)nc2c(NCC3CCCN3CC)nc(C)nc21 (stereo not drawn)
→ -1.1%	-4.5%
CN(C)Cc1ccccc1
→ 0.5%	-3.8%
NC(=O)c1ccc([N+](=O)[O-])cc1
→ 1.0%	-8.3%
C=CCC(C)(O)C#Cc1ccccc1 (stereo not drawn)
→ 3.3%	-2.8%
Cc1ccc(C2CC(=O)Oc3c(C(C)C)ccc(C)c32)cc1 (stereo not drawn)
→ -3.9%	-2.3%
CC(C)(C)OC(=O)NCCCCC1=CC2=CC(=O)C(C)(OC(=O)c3cnc4ccccc4n3)C(=O)C2=CO1 (stereo not drawn)
→ -2.3%	-7.8%
CCCC(=O)OC(=O)CCC
→ -1.5%	1.0%
CCCCCCCC/C=C\CCCCCCCC(=O)NC(C)C(=O)O (stereo not drawn)
→ 6.5%	4.2%
COC(=O)C(C(=O)OC)C(Cc1cc(F)cc(F)c1F)NC=O (stereo not drawn)
→ 5.6%	-7.8%
Clc1cnccn1
→ -5.0%	-7.0%
CC(C)OC(=O)[C@@H]1C=C[C@H](C)[C@@H](CCCCOCc2ccccc2)O1
→ 0.2%	-6.8%
C=CCC(C)(Nc1ccccc1)C(=O)OCC (stereo not drawn)
→ 4.7%	5.4%
COCOc1ccc(OC)cc1C(=O)C1O[C@H]1c1ccc(OC)c(Br)c1 (stereo partly drawn)
→ -3.6%	-1.3%
CC(C)C[C@@H](CC(=O)N[C@@H](CCCN)CC(=O)N[C@@H]1CCCC[C@H]1C(=O)N[C@H](CC(=O)N[C@@H](CCC(=O)O)CC(=O)O)Cc1c[nH]c2ccccc12)NC(=O)[C@@H]1CCCC[C@H]1N
→ -1.0%	?
Nc1ccn([C@@H]2CC[C@H](CO)O2)c(=O)n1
→ -4.2%	-6.7%
c1cc2c3c(c1)ccc1cccc(c13)C2
→ 3.5%	-3.7%
CCC/C=C(\CCC)C(NC(=O)OCC(C)C)c1ccccc1 (stereo not drawn)
→ -0.9%	0.2%
O=C(O)CNC(=O)c1ccc(CO)o1
→ 4.3%	-1.3%
CC(C)c1c(CN(C)[C@@H](C)Cc2ccccc2)n(C)n(-c2ccccc2)c1=O
→ -4.6%	-4.4%
NC(=O)c1cc[n+](CC2=C(C(=O)[O-])N3C(=O)[C@@H](NC(=O)Cc4cccs4)[C@@H]3SC2)cc1
→ -2.5%	-1.5%
COc1ccc2c(c1)C(=O)[C@H](OC(=O)NCCc1ccc(OC)c(OC)c1)[C@@H](c1ccc(OC)c(Br)c1)O2
→ -7.8%	5.1%

# Reprinted from the part before: two entries; new compounds follow.
# Values run as follows: Cruzain inh Det	Cruzain inh noDet
NC(=O)c1cc[n+](CC2=C(C(=O)[O-])N3C(=O)[C@@H](NC(=O)Cc4cccs4)[C@@H]3SC2)cc1
→ -2.5%	-1.5%
COc1ccc2c(c1)C(=O)[C@H](OC(=O)NCCc1ccc(OC)c(OC)c1)[C@@H](c1ccc(OC)c(Br)c1)O2
→ -7.8%	5.1%
CC(C)[C@H]1COC(c2cc(Cl)cc(Cl)c2)=N1
→ 3.5%	1.8%
Cc1nc(NCc2ccccc2)c2nc(-c3ccccc3)n(CC(C)(C)CN(C)C)c2n1
→ -6.2%	-7.8%
COC(=O)[C@@]1(Cc2ccccc2)[C@H]2c3cc(C(=O)N(C)C)n(CCN4CNCC4=O)c3C[C@H]2CN1C(=O)c1ccccc1
→ 5.1%	?
CC(=O)SC[C@@H](Cc1ccccc1)C(=O)NCC(=O)OCc1ccccc1
→ -8.2%	-8.1%
O=c1cc(-c2ccccc2O)oc2c(O)c(O)ccc12
→ -6.1%	-1.6%
CCOC(=O)CC(SP(=S)(OC)OC)C(=O)OCC (stereo not drawn)
→ 3.7%	11.1%
COc1ccc2c3c([nH]c2c1)[C@@H]1C[C@@H]2[C@@H](C[C@H](O)[C@H](OC)[C@H]2C(=O)O)CN1CC3
→ 1.0%	-10.2%
N#Cc1cccc(CS(=O)(=O)c2ccccc2)c1
→ 1.2%	-1.9%
CCCc1cc2c(n1Cc1cc(F)cc(F)c1)C(C)C1CN(C(=O)c3ccccc3)C(C)(C(=O)OC)C21 (stereo not drawn)
→ -4.8%	?
COc1ccc2c(c1)O[C@H](c1ccc3c(c1)OCO3)[C@@H](OC(=O)Nc1ccc(OC(F)F)cc1)C2=O
→ 0.6%	-7.1%
CC[N+]1(C)[C@@H]2CC[C@H]1CC(OC(=O)[C@H]1CC[C@@](C(=O)OC3C[C@H]4CC[C@@H](C3)[N+]4(C)CC)(c3ccccc3)c3ccccc31)C2 (stereo partly drawn)
→ -3.2%	-12.1%
NCCC[C@@H](CC(=O)N[C@@H]1CCCC[C@H]1C(=O)N[C@H](CC(=O)N[C@@H](CCC(=O)O)CC(=O)O)Cc1c[nH]c2ccccc12)NC(=O)C[C@H](CO)NC(=O)[C@@H]1CCCC[C@H]1N
→ -1.8%	3.8%
Cc1ccc(N(C)C)cc1
→ 1.0%	-3.5%
C[C@]1(c2ccccc2)OC(C(=O)O)=CC1=O
→ 0.1%	0.2%
NCCC[C@@H](CC(=O)N[C@@H]1CCCC[C@H]1C(=O)N[C@H](CC(=O)N[C@@H](CCC(=O)O)CC(=O)O)Cc1ccccc1)NC(=O)C[C@H](Cc1c[nH]c2ccccc12)NC(=O)[C@@H]1CNCC[C@H]1N
→ 1.7%	6.1%
CCCCC/C=C\C\C=C/C=C/C=C/[C@@H](SCC(NC(=O)CCC(N)C(=O)O)C(=O)NCC(=O)O)[C@@H](O)CCCC(=O)O (stereo partly drawn)
→ 3.9%	-3.1%
NCCNc1cccc2ccccc12
→ 0.1%	14.8%
CC(C)(C)NC[C@H](O)COc1cccc2c1CCC(=O)N2
→ -3.0%	-1.0%
COc1ccccc1-c1oc2ccccc2c(=O)c1O
→ -2.6%	5.4%
c1ccc2c(c1)CCNC2
→ 2.2%	-2.0%
CN(CCc1ccc(Cl)c(Cl)c1)[C@H]1CCCC[C@H]1N1CCCC1
→ -0.6%	-0.3%
O=c1cc(-c2ccccc2Cl)oc2c([N+](=O)[O-])ccc(O)c12
→ 0.8%	-12.0%
CC(=O)Nc1ccc(/C=N/NC(N)=S)cc1
→ -17.1%	11.2µM*
CC(C)(OOC(C)(C)c1ccccc1)c1ccccc1
→ 3.5%	19.5%
COC(=O)[C@@]1(Cc2ccc(OC)cc2)[C@H]2c3cc(C(=O)N(C)C)n(CCc4ccc(O)c(OC)c4)c3C[C@H]2CN1C(=O)c1ccccc1
→ 3.7%	?
Cc1cc(=O)cc2oc3cc(N)c(-c4c(C)cc(O)cc4O)c(C)c3nc1-2
→ -4.6%	-4.8%
O=C1CCC=C1C(O)c1ccc(Cl)cc1 (stereo not drawn)
→ 4.2%	-4.1%
COC(=O)c1ccc(C(NC(=O)OCc2ccccc2)/C(=C/[C@@H](C)C(=O)N(C)Cc2cccnc2)c2cccnc2)cc1 (stereo partly drawn)
→ -0.3%	?
C[C@@H]1CC2(OC(O)[C@]3(C)O[C@H]23)O[C@H]2C[C@@]3(C)[C@@H]4CC[C@H]5C(C)(C)C(O[C@@H]6OC[C@@H](O)[C@H](O)[C@H]6O)CC[C@@]56C[C@@]46CC[C@]3(C)[C@@H]12 (stereo partly drawn)
→ -0.4%	?
O[C@H](c1cc(C(F)(F)F)nc2c(C(F)(F)F)cccc12)[C@H]1CCCCN1
→ 4.4%	1.2%
CCCC[C@@H]1C[C@H]1C(NC(=O)c1ccccc1)c1ccccc1C(F)(F)F (stereo partly drawn)
→ -7.3%	5.7%

# Quoted at random: two records from the list
# Values run as follows: Cruzain inh Det	Cruzain inh noDet
NC(=O)c1cc[n+](CC2=C(C(=O)[O-])N3C(=O)[C@@H](NC(=O)Cc4cccs4)[C@@H]3SC2)cc1
→ -2.5%	-1.5%
CC(C)OC(=O)[C@@H]1C=C[C@H](C)[C@@H](CCCCOCc2ccccc2)O1
→ 0.2%	-6.8%

# Screens deposited in PubChem by National Center for Advancing Translational Sciences (NCATS).
